Mtb MbtI inh – inhibitors of Mycobacterium tuberculosis siderophore enzyme MbtI | purified MbtI enzyme, fluorescence intensity read-out | inhibition, %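 (about 17 µg/mL by stock and volumes)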 | 100,000 compounds, 0.89% hits | AID 493033;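 active = above 50% in both replicates, above 80% if mildly self-fluorescent; inactive = the rest, strongly fluorescent compounds included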;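 also: 0% = mean of negative and 100% = mean of positive controls; one replicate is shown; some compounds called inactive have numbers as strong as hits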
Mtb MenB inh – inhibitors of Mycobacterium tuberculosis MenB enzyme. inhibition, %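 (about 12 µg/mL by stock and volumes)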. P9WNP5. AID 540299. 100,000 compounds, 0.43% hits. MenB enzyme assay, absorbance read-out; some hits fall short of the stated cut;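 active = mean of two replicates above 30%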;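 also: 0% = no compound and 100% = wells with inactive enzyme; the first replicate is given; strong numbers were not always called active; inactives centre near -10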
Target sequence (P9WNP5 whole entry, looked up): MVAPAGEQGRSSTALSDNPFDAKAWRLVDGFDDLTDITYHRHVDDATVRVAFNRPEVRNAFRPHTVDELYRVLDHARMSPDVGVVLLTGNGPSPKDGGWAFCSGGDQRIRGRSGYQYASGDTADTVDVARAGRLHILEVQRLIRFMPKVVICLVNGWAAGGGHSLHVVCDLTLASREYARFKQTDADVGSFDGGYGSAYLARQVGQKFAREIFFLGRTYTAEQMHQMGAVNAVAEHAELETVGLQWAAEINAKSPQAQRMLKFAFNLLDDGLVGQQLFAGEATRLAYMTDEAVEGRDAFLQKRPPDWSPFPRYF
PV pol inh – poliovirus RNA polymerase inhibition; 150,000 compounds, 0.66% hits; P03300; poliovirus polymerase elongation, fluorescence polarization; active compounds read low; % elongation, % (compound at 16.7 µg/mL); in the data active = % elongation below about 90%; also: some results filed as inactive read as strong as hits
Target sequence (P03300 1749-2209 limits assumed): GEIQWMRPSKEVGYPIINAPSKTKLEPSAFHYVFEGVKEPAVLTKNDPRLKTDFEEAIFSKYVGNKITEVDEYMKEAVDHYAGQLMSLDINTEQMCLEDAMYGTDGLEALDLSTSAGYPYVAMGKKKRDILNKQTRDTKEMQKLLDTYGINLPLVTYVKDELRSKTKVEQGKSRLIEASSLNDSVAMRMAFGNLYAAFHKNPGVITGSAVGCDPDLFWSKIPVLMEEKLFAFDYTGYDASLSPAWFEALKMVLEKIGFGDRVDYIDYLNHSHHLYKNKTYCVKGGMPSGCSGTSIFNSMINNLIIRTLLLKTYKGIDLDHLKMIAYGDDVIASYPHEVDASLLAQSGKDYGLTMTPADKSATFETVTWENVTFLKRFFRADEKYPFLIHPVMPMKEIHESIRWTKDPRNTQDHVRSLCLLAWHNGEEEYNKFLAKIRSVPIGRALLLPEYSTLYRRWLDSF
PV pol inh intensity – recorded beside PV pol inh, whose call it bears; % elongation; measured here: total intensity read-out; formula for this scale not given here;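 total fluorescence in place of polarization; lower means less elongation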
* marks the source's active call; other numbers are inactive results; . = not tested or not shown; & = joins results of further samples.

SMILES	Mtb MbtI inh	Mtb MenB inh	PV pol inh	PV pol inh intensity
COCCC1C(=O)c2c(n(Cc3ccccc3)c3nc4ccccc4nc23)N=C1C (stereo not drawn)	45	-15	99	96
Cc1onc(-c2ccccc2)c1-c1csc(-c2ccc(-c3csnn3)cc2)n1	17	-17	100	101
CCOC(=O)c1c(C)nsc1NC(=O)C1CCC1	-3	-16	103	103
O=C(O)CNC(=O)COc1ccccc1	-17	2	100	102
CCOc1cc(C#N)cc(I)c1OCC(=O)OC	-5	-31	104	103
Nc1nnc(C2CC2)s1	38	.	96	102
CC(C)Cc1ccc(S(=O)(=O)Nc2noc3ccccc23)cc1	10	-6	102	102
O=C(NC1CCN(Cc2ccccc2)CC1)c1cccc(N2CCCS2(=O)=O)c1	26	-16	101	105
CCc1nnc(NC(=O)c2ccc(S(=O)(=O)N(C)C)cc2)o1	2	-1	100	100
O=C(Cc1n[nH]c(=O)c2ccccc12)Nc1cccnc1	2	7	99	113
CCSc1nc(C(F)(F)F)nc2ccccc12	-1	-13	99	102
COCCNC(=O)C1CCN(C(=O)c2sccc2-n2cccc2)CC1	-3	-20	104	103
C=CCNCc1cccn1-c1ccccc1	-12	5	101	103
O=C(CSCc1cnn(-c2ccccc2)c1-n1cccc1)NCCN1CCCC1	-9	-2	100	101
O=C(/C=C/c1cn(-c2ccccc2)nc1-c1cccnc1)NCCCn1ccnc1	-2	-14	106	106
c1c2c(cc3sc(N4CCOCC4)nc13)OCCO2	10	-11	104	107
O=C(Nc1cccnc1)c1cc2ccccc2oc1=O	-1	-23	104	105
COc1ccccc1C(=O)Nc1ccccc1C(=O)N1CCCCC1	15	-14	99	102
CCCc1cc(=O)[nH]c(SCC(=O)N2CCCCCC2)n1	15	0	108	112
Cc1[nH]c(C)c(S(=O)(=O)N2CCCCC2)c1C(=O)N1CCCCC1	4	-17	100	98
C[C@]12CC[C@@H]3c4ccc(OS(=O)(=O)O)cc4CC[C@H]3[C@@H]1CCC2=O	-25	10	99	101
Cc1ccc(NC(=O)Nc2ccc3c(c2)oc(=O)n3C)cc1	-1	5	101	104
C=CCn1c(-c2cccnc2)nn(C(=O)c2cc(OC)c(OC)c(OC)c2)c1=S	13	-16	101	99
CCCCC[C@H](O)/C=C/[C@@H]1[C@@H](C/C=C\CCCC(=O)O)[C@@H](O)C[C@H]1O (tested in a mixture with another compound)	-7	-11	101	100
O=C(COc1ccccc1)N(c1nccs1)C1CCCCC1	-4	.	99	98
Cc1noc(C)c1CC(=O)N1CC(C(N)=O)Oc2ccccc21 (stereo not drawn)	-15	-30	112	127
O=C(CSc1nc(-c2ccccc2)cc(=O)[nH]1)c1c[nH]c2ccccc12	-3	3	101	100
NC(N)=NC(N)=Nc1cc(-c2cccs2)[nH]n1	-30	-18	103	103
CCCOc1ccc(C(F)(F)F)cc1NC(=O)c1cccnc1SCc1c(C)noc1C	7	-17	110	121
C=CCn1c(Cc2csc(N)n2)nnc1SCC(=O)Nc1ccc(S(N)(=O)=O)cc1	-14	-13	102	102
COc1ccc(-c2cc(=O)oc3c4c(ccc23)OCN(Cc2ccco2)C4)cc1	2	20	103	99
O=C(Nc1ccc(OCC(=O)N2CCCC2)cc1)c1ccco1	4	-28	100	100
Cc1cc(C(=O)COC(=O)CN=C2NS(=O)(=O)c3ccccc32)c(C)n1C	13	6	96	102
Cc1ccc(Cn2ccn(Cc3ccccc3)c(=O)c2=O)cc1	154	-28	104	106
CCC(C(=O)N1CCN(c2ccccc2)CC1)n1sc2ccccc2c1=O (stereo not drawn)	-14	-16	102	100
COCC(=O)Nc1cccc2ccccc12	-37	-6	99	100

Some of the entries so far, with bars between the fields:
Compound | Mtb MbtI inh | Mtb MenB inh | PV pol inh | PV pol inh intensity
COc1ccc(-c2cc(=O)oc3c4c(ccc23)OCN(Cc2ccco2)C4)cc1 | 2 | 20 | 103 | 99
O=C(Nc1ccc(OCC(=O)N2CCCC2)cc1)c1ccco1 | 4 | -28 | 100 | 100
Cc1cc(C(=O)COC(=O)CN=C2NS(=O)(=O)c3ccccc32)c(C)n1C | 13 | 6 | 96 | 102
Cc1ccc(Cn2ccn(Cc3ccccc3)c(=O)c2=O)cc1 | 154 | -28 | 104 | 106
CCC(C(=O)N1CCN(c2ccccc2)CC1)n1sc2ccccc2c1=O (stereo not drawn) | -14 | -16 | 102 | 100

(list continues)
SMILES	Mtb MbtI inh	Mtb MenB inh	PV pol inh	PV pol inh intensity
Cc1nn(-c2ccccc2)c(C)c1C(=O)N(Cc1ccco1)Cc1cccs1	-24	-4	105	107
Cc1ccccc1-n1c(SC(C)C(=O)NC(N)=O)nnc1-c1ccc(Cl)cc1 (stereo not drawn)	-6	-20	102	107
COc1ccccc1CNC(=O)C1CCCN1S(=O)(=O)c1ccc2c(c1)C(C)(C)C(=O)N2C (stereo not drawn)	-13	-8	105	101
COC(=O)CNC(=O)c1cc(-c2ccc(F)cc2)nc2ccccc12	103	-8	101	106
Cc1ccc(-n2c(N)c(C(=O)NCC3CCCO3)c3nc4ccccc4nc32)cc1 (stereo not drawn)	-26	4	107	111
O=S(=O)(c1ccc(NC(=S)Nc2ccc3c(c2)OCO3)cc1)N1CCCCC1	5	-26	104	100
CC(=O)NCc1ccc(C(=O)COC(=O)c2ccc(S(=O)(=O)N3CCCCCC3)cc2)o1	-9	-3	100	102
O=C(OCc1nnc(-c2ccccc2)o1)c1ccccc1NS(=O)(=O)c1ccc2c(c1)OCCO2	-2	-4	101	106
Cc1cc(OC(=O)N(C)C)cc(=O)n1C	-3	-4	106	106
COc1ccc(Br)cc1S(=O)(=O)N1CCN(Cc2ccc3c(c2)OCO3)CC1	-2	-13	100	97
CC(NC(=O)COc1cccc(-n2cnnn2)c1)c1ccc2c(c1)OCO2 (stereo not drawn)	-12	-11	104	107
CCCC(=O)N1CCCC(c2nc(-c3ccc(C(C)C)cc3)no2)C1 (stereo not drawn)	-5	-99	106	101

Nothing new here: an excerpt of the list.
SMILES	Mtb MbtI inh	Mtb MenB inh	PV pol inh	PV pol inh intensity
Cc1nn(-c2ccccc2)c(C)c1C(=O)N(Cc1ccco1)Cc1cccs1	-24	-4	105	107
Cc1ccccc1-n1c(SC(C)C(=O)NC(N)=O)nnc1-c1ccc(Cl)cc1 (stereo not drawn)	-6	-20	102	107
COc1ccccc1CNC(=O)C1CCCN1S(=O)(=O)c1ccc2c(c1)C(C)(C)C(=O)N2C (stereo not drawn)	-13	-8	105	101
COC(=O)CNC(=O)c1cc(-c2ccc(F)cc2)nc2ccccc12	103	-8	101	106
Cc1ccc(-n2c(N)c(C(=O)NCC3CCCO3)c3nc4ccccc4nc32)cc1 (stereo not drawn)	-26	4	107	111
O=S(=O)(c1ccc(NC(=S)Nc2ccc3c(c2)OCO3)cc1)N1CCCCC1	5	-26	104	100

Further results follow:
SMILES	Mtb MbtI inh	Mtb MenB inh	PV pol inh	PV pol inh intensity
O=C1c2cccnc2C(=O)N1CCc1ccc(S(=O)(=O)NCc2ccccn2)cc1	-4	-23	104	103
COc1ccc(C(=O)NCCc2ccccn2)cc1S(=O)(=O)NC1CCCC1	0	1	100	101
Cc1ccc(C(=O)OCC(=O)Nc2ccc(N(C)C)cc2)c(C)c1	4	-10	106	105
O=C(Cn1cnc2c(oc3ccccc32)c1=O)NCc1ccccc1	9	-7	101	101
COc1cccc(OC)c1C(=O)N1CCN(C(=O)c2ccccc2)CC1	-4	1	100	102
Cc1ccc(-c2nnc(SCC(=O)OC(C)C)o2)cc1	1	-8	100	101
COc1cccc(-n2c(=O)c3c(C)c(C)sc3n(CC(=O)NCCC3=CCCCC3)c2=O)c1	9	-3	101	98
Cn1ccnc1C(=O)c1ccc(F)cc1	13	2	107	107
N#Cc1ccc(OCC(=O)N2CCN(C/C=C/c3ccccc3)CC2)cc1	0	.	102	103
CC(=O)N(/N=c1\sc2ccccc2n1C(C)=O)C(C)=O	13	-23	104	100
CC(C)=N/N=C1/NC(=O)C(CC(=O)Nc2ccc(C(=O)O)cc2)S1 (stereo not drawn)	-6	-9	98	105
O=C(Cn1nnc(-c2ccccc2)n1)N1CCCc2ccccc21	-6	.	105	107
COc1ccc(C(=O)N2CCc3cc(OC)c(OC)cc3C2c2ccccc2)cc1 (stereo not drawn)	-2	-16	101	102
O=C(NCCN1CCN(Cc2ccccc2)CC1)Nc1ccccc1	-8	-7	103	110
CN1CCC2(CC1)N1CC3(C)CN2CC(C)(C1)C3O (stereo not drawn)	-21	12	101	102
CCn1c2ccccc2c2cc(NC(=O)c3cccs3)ccc21	20	-34	108	105
O=c1oc(-c2ccccc2N=Cc2sc3ccccc3c2O)nc2ccccc12	-3	-3	104	107
CCNS(=O)(=O)c1ccc(SC)cc1	3	6	100	100
O=C1c2ccccc2-c2c1c1ccccc1c(=O)n2Cc1ccc2c(c1)OCO2	0	-10	101	105
Cc1cc(C)c2c(N)c(C(=O)C(C)(C)C)sc2n1	-51	-13	102	105
CCC1CCc2sc(C(=O)O)cc2C1 (stereo not drawn)	6	-21	102	103
CCN(CC)S(=O)(=O)N1CCC(C(=O)NCCc2ccccc2)CC1	-14	-29	102	102
COc1ccc(CN(Cc2ccc(OC)cc2)S(=O)(=O)c2c(C)noc2C)cc1	-13	-25	104	105
CCC(Sc1ccccn1)C(=O)Nc1cccc2ccccc12 (stereo not drawn)	.	-11	103	105
OCC1CCCC1O (stereo not drawn)	-4	-7	98	99
C=CCn1c(SCN2C(=O)c3ccccc3C2=O)nnc1C1CCCCC1	-3	0	100	103
COC(CNC(=O)c1ccc2c(c1)N(Cc1cc(C)ccc1C)C(=O)c1ccccc1S2=O)OC (stereo not drawn)	0	-23	.	.
COc1ccc(/C=C2/SC(=O)N(CC(=O)NCCO)C2=O)cc1OC	56	-74	101	106
CCCc1cc2c(=O)c(-c3ccc4c(c3)OCO4)c(CCC)oc2cc1O	-17	-15	101	104
CN(C(=O)COC(=O)c1cc(=O)[nH]c(=O)[nH]1)C1CCCCC1	12	-8	99	91
CC(C)CC(C(=O)O)N1C(=O)/C(=C\c2cccn2C)SC1=S (stereo not drawn)	23	-210	116	119
COc1cc(OC)cc(-c2nc(N)c3c(C)c(-c4ccc(OC)c(OC)c4)sc3n2)c1	-106	6	98	104
CC1(C)Cc2ccccc2C(N/N=C/c2ccncc2)=N1	-1	-60	104	101
CC(C(=O)NCc1ccccc1)C1Sc2ccccc2N(Cc2cccc(Cl)c2)C1=O (stereo not drawn)	-2	-20	104	102
Cc1cc(C(=O)OCc2nc3ccccc3c(=O)n2CC#N)c(C)n1-c1ccc(F)cc1	6	-34	112	133
C(=NC12CN3CN(CN(C3)C1)C2)c1cccnc1	-10	-25	103	105
O=C(Nc1ccc2c(c1)oc1ccccc12)C(F)(F)F	-124	-50	106	103
CC1CC(C)CN(C(=O)CSc2ncnc3ccccc23)C1 (stereo not drawn)	-10	.	104	109
O=C(O)C1CCCCC1C(=O)Nc1cccc(C(=O)N2CCCCC2)c1 (stereo not drawn)	-7	-38	99	99
COC(=O)c1c(NC(C)=O)sc2c1CCC2	.	-5	103	108
Cc1ccc(C(=O)Nc2c[nH]c(=O)[nH]c2=O)cc1	-17	-25	100	103
COC1(C)COC(C)(OC)CO1 (stereo not drawn)	-16	.	103	108
C/C(=N\OC(=O)c1ccccc1)c1csc(-c2snnc2C)n1	8	-26	100	104
Cc1ccccc1Nc1c(-c2ccc(O)cc2)nc2cnccn12	46	-29	100	102
COc1ccc(CC(=O)NCc2nnc(SCCOc3ccccc3)n2C)cc1	-2	-35	99	99
COc1ccc(NC2=Nc3ccccc3CCC2)cc1	-8	-9	102	109
O=C(O)CCCNc1ncnc2ccc(Br)cc12	.	-3	102	112
CC(C)(C)OC(=O)NN1C(=O)c2ccccc2C1=O	-18	-4	100	102
CCCN=C1NN=C(c2ccc(OCC)cc2)CS1	17	-34	106	108
CCCOC(=O)c1ccc(NC(=O)CN(C)C)cc1	-1	3	99	108
CCCNC(=O)c1cc(Cl)c(NC(C)=O)cc1OC	-5	7	100	103
CC1(c2ccccc2)CC(C)(C)N2C(=O)Cc3cccc1c32 (stereo not drawn)	-7	.	106	109
Cc1ccccc1NC(=O)Cc1nc(-c2cc(C)n(Cc3ccco3)c2C)cs1	-36	-35	103	102
CC1(C)CC2=NN(c3ccccc3)P(=S)(Nc3nccs3)C2=C(N2CCCC2)C1 (stereo not drawn)	19	-21	92	94
N#CC(C(=O)NCc1ccccc1)c1nc2ccccc2nc1N1CCCC1 (stereo not drawn)	9	0	44	243
C=CCOc1cccc(C2C(C(=O)c3ccc(C)o3)=C(O)C(=O)N2c2nnc(C)s2)c1 (stereo not drawn)	.	-94	104	127
O=C1CCCN1C(=O)CSc1nc2ccccc2n1CCc1ccccc1	8	0	99	97
Cc1ccc(-c2nn(-c3ccccc3)cc2/C=C/C(=O)O)o1	-200	.	100	103
CCNC(=O)C1CCCN(C2=NS(=O)(=O)c3ccccc32)C1 (stereo not drawn)	2	13	101	104
O=C(Nc1nncs1)C1CCCCC1	.	-9	100	100
More compounds
SMILES	Mtb MbtI inh	Mtb MenB inh	PV pol inh	PV pol inh intensity
COc1ccc2cc(-c3nc4ccccc4[nH]3)c(=N)oc2c1	-25&-87	.	104&103	111&108
O=C(CSc1ncccn1)NC(=O)NC1CCCCC1	-6	-27	100	95
CCC(=O)Nc1nc2ccc(C)cc2s1	.	-11	102	104
Cc1ccc2occ(CC(=O)Nc3ccc(C)c(Cl)c3)c2c1	-1	-43	102	101
Cn1cnnc1SCC(=O)NC1CCCC1	-15	-13	101	101
CCNc1nc(NCC)n2c(SCC(=O)N3CCc4ccccc4C3)nnc2n1	18	-12	101	105

Compound activity (PubChem BioAssay)
